StopGo reporter: lowers the luciferase signal of an FMDV 2A StopGo reporter; Potency, µM (top dose mostly 57.9 µM), for the others: top-dose signal change, negative = less light; 1.2% of 410,000 active; human cells with a luciferase reporter of 2A StopGo recoding; control for the full effect not named in the record; AID 1159524; active = well fitted falling curve with a large enough effect; inconclusive = small, poorly fitted or top-dose-only effect; inactive = no such curve, though single readings can be large or run the other way; tested in HEK293T cells; note: % is set by controls: 0 for no effect and ±100 for the full control effect; nearly all actives have a fitted effect of over 45% in size; luciferase light after 4 h
Cruzain inh noDet: inhibitors of Trypanosoma cruzi cruzain without detergent. P25779. purified cruzain, Z-FR-AMC fluorescence, no detergent. Potency, µM, inactives show max response, negative = inhibition, actives largely listed as inhibitors. 2.3% of 200,000 active. AID 1476;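 note: plate controls were enzyme without inhibitor for no effect and buffer without enzyme for full effect; nearly all actives have a fitted effect of over 40% in size; top concentration of the series not given in the record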
Target sequence (P25779 123-467 limits assumed): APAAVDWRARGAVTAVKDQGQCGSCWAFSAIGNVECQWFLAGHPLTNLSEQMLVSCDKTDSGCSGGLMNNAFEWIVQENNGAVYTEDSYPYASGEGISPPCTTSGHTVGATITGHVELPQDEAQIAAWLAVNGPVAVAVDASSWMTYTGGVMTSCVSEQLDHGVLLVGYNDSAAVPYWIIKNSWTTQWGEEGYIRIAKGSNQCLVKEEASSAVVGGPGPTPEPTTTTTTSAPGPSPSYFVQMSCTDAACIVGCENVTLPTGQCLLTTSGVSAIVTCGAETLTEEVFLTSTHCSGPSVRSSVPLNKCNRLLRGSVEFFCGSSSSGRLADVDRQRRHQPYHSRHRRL
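Detergent-free condition (0.00005% Triton X-100) in acetate buffer pH 5.5 with DTT. 1.5 nM enzyme and compound were pre-mixed 15 min, then 2 uM Z-FR-AMC substrate added; reaction progress from fluorescence change between first and third reads (60 s).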
RE007 growth inh: less growth of the S. pombe RE007 Vpr strain; S. pombe RE007 Vpr strain, BacTiter-Glo ATP luminescence, 24 h; control for the full effect not named in the record; Potency, µM (titrated, usually from 92.2 µM), for the others: at the top dose activity change, negative = less growth; 0.21% of 360,000 active; AID 651644; active = well fitted falling curve with a large enough effect; inconclusive = small, poorly fitted or top-dose-only effect; inactive = no such curve, though single readings can be large or run the other way;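 note: % is set by controls: 0 for no effect and ±100 for the full control effect; nearly all actives have a fitted effect of over 50% in size; the assay follows cell death caused by Vpr and the record does not say whether a fall means rescue or toxicity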
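Fission yeast RE007 carrying one integrated HIV-1 vpr copy, seeded at OD 0.01 in PMG+AL medium with 23 nL pinned compound. Grown 24 h at 30 degrees; viability read by BacTiter-Glo luminescence after 5 min.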
MARV entry inh: blocks Marburg virus binding to or entry into cells. Marburg virus pseudotyped entry inhibition, cell reporter; control for the full effect not named in the record; about a third of the inactives were read at about 46 µM. AID 540276. 1.8% of 300,000 active. Potency, µM (series often up to 37.8 µM), for the others: at the top dose activity change, negative = inhibition, most hits filed as inhibitors; active = well fitted inhibition curve with a large enough effect; inconclusive = small, poorly fitted or top-dose-only effect, or effect the other way; inactive = flat fitted curve, though single readings scatter; tested in HEK293 cells; about a fifth of its hits are not listed in these tables; note: % is set by controls: 0 for no effect and ±100 for the full control effect; luciferase read-out
LASV entry inh: inhibitors of Lassa virus binding or cell entry; Lassa virus pseudotype entry inhibition, cell reporter; control for the full effect not named in the record; Potency, µM (series often up to 37.9 µM), for the others: at the top dose activity change, negative = inhibition, hits mostly inhibitors; 1.2% of 300,000 active; active means well fitted inhibition curve with a large enough effect; inconclusive means small, poorly fitted or top-dose-only effect, or effect the other way; inactive means flat fitted curve, though single readings scatter; tested in HEK293 cells; note: % is set by controls: 0 for no effect and ±100 for the full control effect; nearly all actives have a fitted effect of over 50% in size; luciferase read-out
SARS PLP yeast: inhibitors of SARS-CoV papain-like protease in yeast. 0.19% of 330,000 active. Potency, µM (titrated, usually from 32.9 µM), for inactives: at the highest dose activity, positive = growth rescue. S. cerevisiae expressing SARS-CoV PLpro, growth rescue; control for the full effect not named in the record; active means well fitted rising curve with a large enough effect; inconclusive means small, poorly fitted or top-dose-only effect; inactive means no such curve, though single readings can be large or run the other way; note: 0% is about no effect; nearly all actives have a fitted effect of over 55% in size; growth read by luminescence after 48 h
Cruzain Triton: blocks cruzain activity in presence of Triton detergent | P25779 | purified cruzain, Z-FR-AMC fluorescence, 0.01% Triton | Potency, µM, for the others: max response, negative = inhibition, usual class: inhibitors | 0.43% of 200,000 active;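 note: plate controls were neutral wells for no effect and buffer without enzyme for full effect; nearly all actives have a fitted effect of over 40% in size; top concentration of the series not given in the record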
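Purified cruzain (1.5 nM final) was preincubated with compounds for 15 min at room temperature in 100 mM sodium acetate pH 5.5, 5 mM DTT, 0.01% Triton X-100. Reaction started with 2 uM Z-FR-AMC; AMC fluorescence change over 60 s gave activity.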
NS1 function inh: inhibitors of influenza NS1 protein function; S. cerevisiae slowed by influenza A NS1, growth recovery by OD600; 0.4% of 270,000 active; Potency, µM (titrated, usually from 46.1 µM), for the others: at the top dose activity, positive = more growth; AID 2326; active means well fitted rising curve with a large enough effect; inconclusive means small, poorly fitted or top-dose-only effect; inactive means no such curve, though single readings can be large or run the other way; note: nearly all actives have a fitted effect of over 50% in size
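OD600 was taken as the measure of yeast growth restored by compound in an NS1-expressing S. cerevisiae strain. Cells had been washed out of glucose medium and diluted 1:100 into galactose -URA medium, pH 6.0.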
* marks the source's active call; other numbers are inactive results; ? = inconclusive; / = not tested or not shown; & = joins results of further samples; [ ] = dose if it differs, or a comment. Unless noted, calls come from the whole dose curve; as a rule, active = well fitted curve in the direction sought with a large enough effect; inconclusive = small, poorly fitted or top-dose-only effect, or another doubt; inactive = no such curve, though single readings can be large; an effect the other way counts as inactive or inconclusive. Potency is the fitted concentration of half-maximal effect.

SMILES	StopGo reporter	Cruzain inh noDet	RE007 growth inh	MARV entry inh	LASV entry inh	SARS PLP yeast	Cruzain Triton	NS1 function inh
c1ccc(CSc2ncnc3c2oc2ccccc23)cc1	-13.5%	/	11.2%	10.3%[46.1 µM]	7.1%	/	/	/
CCN(CC)C(=O)C1CCN(c2cc(C)nc3c(-c4ccc(OC)c(OC)c4)c(C)nn23)CC1	-22.9%	-2.1%	/	2.2%[46.1 µM]	15.4%[46.1 µM]	/	3.5%	/
CCOC(=O)c1ccccc1NC(=O)CSC(C)C(=O)Nc1cc(C)on1 (configuration not stated)	-3.5%	/	9.6%	-0.6%	-15.6%	-2.0%	/	/
CCn1c(CC(=O)Nc2ccc(C)cc2)nnc1SCC(=O)NCCc1ccccc1	17.6%	14.2%	3.7%	2.6%	12.0%	3.7%	10.5%	12.1%
Cc1ccc(NC(=O)ON=C2CCCC2)cc1	-4.9%	9.3%	-8.4%	10µM*	1.41µM*	/	-1.2%	-30.9%
Cc1oc(-c2ccc3c(c2)OCCO3)cc1C(=O)NC(Cc1ccccc1)C(=O)O (configuration not stated)	40.1%[activator]	/	-8.1%	-12.3%[46.1 µM]	4.0%	-1.1%	/	-1.8%
NC1=NC(=O)S/C1=C\c1ccc(O)cc1	7.9%	-7.4%	-4.6%	20.4%	8.4%	20.8%	-5.4%	10.7%
CC(C)C(=O)N1CCN(CCN=Cc2c(O)n(C)c(=O)n(C)c2=O)CC1	16.8%	4.9%	-10.3%	17.8%&17.8%	1.3%	-16.5%	2.8%	9.1%
CCN(CC)C(=O)c1sc(NC(=O)c2nc3ncccn3n2)c(C(=O)OC)c1C	0.4%	-2.3%	/	-23.0%[46.1 µM]	5.1%[46.1 µM]	/	1.5%	/
CC(C)(C)c1ccc(CN(Cc2ccco2)Cc2nnnn2C2CCCC2)cc1	4.5%	-5.0%	3.3%	?	?	-2.4%	-6.6%	16.6%
O=c1[nH]c(SCc2cccc(Cl)c2)nc2[nH]ncc12	-7.8%	/	13.1%	/	/	-0.3%	/	2.3%
COc1cc([N+](=O)[O-])ccc1NC(=O)Nc1cccnc1	-0.6%	/	-9.0%	/	/	2.8%	/	4.0%
Cc1ccc(C(=O)OCC(=O)NC2CCCCCC2)c(C)c1	0.8%	/	-12.3%	12.6%[46.1 µM]	?	1.3%	/	/
Cc1c(C(=O)Nc2ccc(Cl)cc2)c2ccccn2c1C(=O)c1ccc(F)cc1	-16.5%	?	-12.3%	?	0.1%	2.5%	-4.1%	9.9%
CCN(CC)C(=O)c1cc(Cl)ccn1	-9.5%	/	5.0%	2.4%[46.1 µM]	12.9%	1.6%	/	/
CC(Cl)C(=O)Nc1cc(C(F)(F)F)ccc1N1CCOCC1 (configuration not stated)	-9.4%	/	6.3%	?	3.9%	-1.8%	/	0.0%
COc1ccc(CC(C(=O)Nc2ccc(OC)cc2)c2nn[nH]n2)cc1 (configuration not stated)	-1.0%	/	-7.6%	/	/	1.9%	/	8.1%
Cc1onc(-c2ccccc2)c1C(=O)NC(=S)Nc1sc2c(c1C#N)CCC(C)C2 (configuration not stated)	-9.2%	7.94µM*	0.8%	?	5.8%[46.1 µM]	19.6%	-6.4%	?
O=c1[nH]c2ccccc2n1CCCN1CCCCC1	5.5%	/	-8.4%	?	3.1%	1.1%	/	0.1%
CC(C)(C)c1ccc(C2=NC(C)(C)N(CC(=O)Nc3ccc(F)c(F)c3)C2=O)cc1	-10.9%	11.7%	/	10.3%[46.1 µM]	-7.8%[46.1 µM]	/	-10.1%	/
Cc1cccc(Oc2ccc3c(c2)cc(C(=O)O)n3C)c1	1.5%	/	?	/	/	-11.2%	/	-71.0%
COc1cc(OC)c(OC)cc1CNCCc1ccc(F)cc1	-18.3%	/	2.2%	?	9.3%[46.1 µM]	1.9%	/	11.8%
Cc1cccc(C)c1-n1c(C)nn(CC#N)c1=O	-5.1%	/	15.4%	0.3%[46.1 µM]	21.3%	0.8%	/	-1.4%
COc1ccc(CC(=O)NCc2nnc(SCc3ccc(C)cc3)n2C)cc1	-12.2%	7.7%	13.2%	2.8%	3.3%[46.1 µM]	14.5%	-1.8%	-5.8%
CC(C)OCCCNc1ncc2c(n1)CC(c1ccccc1)CC2=O (configuration not stated)	0.0%	/	-7.0%	-26.4%[46.1 µM]	?	-3.3%	/	/
COc1cc(/C=N/NC(=O)Cn2nc([N+](=O)[O-])cc2C)cc(Br)c1OCc1ccccc1	?	-15.2%	4.1%	?	-21.4%	-2.7%	1.9%	10.5%
CCN(CC)C(=O)Cn1c(=O)n(CC(=O)N2CCCCC2)c(=O)c2sccc21	-5.1%	/	7.0%	/	/	-2.9%	/	-5.6%
Cc1ccc(-n2nc3ccc(NC(=S)NC(=O)/C=C/c4ccco4)cc3n2)cc1	9.5%	?	-1.2%	25.1%	?	8.0%	-2.3%	14.1%
CCOc1ccc(NC(=O)CSc2nc(C)c3c(c2C#N)CCCC3)cc1	17.1%	-10.3%	15.8%	-0.8%	8.7%	2.6%	-1.0%	23.6%
NC(=O)C(c1ccc(Cl)cc1)c1ccc(Sc2ccc(Cl)cc2)nn1 (configuration not stated)	?	7.5%	32.8%	?	?	5.0%	-8.2%	15.9%
Cc1ccc(S(=O)(=O)Oc2ccccc2/C=N/NC(N)=S)cc1	/	?	1.8%	?	?	3.2%	7.08µM*	12.7%
Cn1c(=O)n(C)c2cc([N+](=O)[O-])c(N3CCN(S(=O)(=O)c4ccc(C(C)(C)C)cc4)CC3)cc21	/	?	1.9%	?	?	-0.1%	-5.0%	13.1%
Cc1c(N2C(=O)CS/C2=N\N=C\c2ccc(Br)cc2)c(=O)n(-c2ccccc2)n1C	-3.6%	4.9%	5.1%	-0.9%	9.7%	3.5%	-14.8%	8.2%
CCn1ccnc1CN(C)C(=O)c1ccc2nc(Cc3ccc(OC)cc3)oc2c1	-1.9%	/	-5.0%	/	/	-12.1%	/	6.5%
CC(OC(=O)CCCN=C1NS(=O)(=O)c2ccccc21)C(=O)Nc1ccc(F)c(F)c1F (configuration not stated)	7.6%	/	3.0%	1.1%	-0.1%	-1.2%	/	/
O=C(Nc1ccc(C(=O)OCc2cc(=O)n3ccsc3n2)cc1)c1cccc(F)c1	-15.4%	7.0%	/	/	?	/	-1.1%	/

Individual results from the list.
Entry of COc1cc([N+](=O)[O-])ccc1NC(=O)Nc1cccnc1 under NS1 function inh: 4.0%
Entry of Cn1c(=O)n(C)c2cc([N+](=O)[O-])c(N3CCN(S(=O)(=O)c4ccc(C(C)(C)C)cc4)CC3)cc21 under RE007 growth inh: 1.9%
Entry of Cc1oc(-c2ccc3c(c2)OCCO3)cc1C(=O)NC(Cc1ccccc1)C(=O)O (configuration not stated) under MARV entry inh: -12.3%[46.1 µM]

Carrying on.
SMILES	StopGo reporter	Cruzain inh noDet	RE007 growth inh	MARV entry inh	LASV entry inh	SARS PLP yeast	Cruzain Triton	NS1 function inh
Fc1ccc(-c2cc(C(F)(F)F)nc(-n3cncn3)n2)cc1	-10.2%	-5.4%	11.2%	-20.6%	11.3%	0.8%	0.3%	0.1%
COc1ccc(NC(=O)C2CCN(S(=O)(=O)c3c(C)noc3/C=C/N(C)C)CC2)cc1	-2.4%	/	2.0%	/	/	1.8%	/	?
O=C(/C=C/c1cccc(F)c1)N1CCc2ccccc21	5.6%	-5.1%	-0.2%	?	?	-19.3%	0.1%	-1.9%
COc1ccc(NC(=O)c2c(C)oc3ccc(O)c(CN4CCCCCC4)c23)cc1	-11.4%	-2.0%	/	?	?	/	-1.9%	/
CCN(CC)S(=O)(=O)c1cc(C(=O)O)c(Cl)cc1Cl	-21.2%	-2.9%	-5.2%	-6.9%	0.2%	-3.4%	-8.3%	-1.6%
Cc1ccc(C)c(C(=O)C(C)OC(=O)c2cccn2C)c1 (configuration not stated)	-28.6%	-9.8%	-1.5%	2.8%	0.7%	-3.0%	-3.3%	-30.0%
COc1cc(OC)cc(-c2cc(N)n(S(=O)(=O)Cc3ccccc3)n2)c1	?	-1.3%	10.2%	/	/	-2.4%	-6.7%	11.5%
CCCn1c(C(O)c2ccc3c(c2)OCO3)nc2ccccc21 (configuration not stated)	/	-0.5%	14.0%	-28.5%	15.6%	5.7%	2.5%	-12.7%
CCOc1ccc(NC(=O)CN(C)S(=O)(=O)c2ccc3c(c2)CCC(=O)N3)cc1	1.3%	/	0.4%	/	/	0.6%	/	-6.2%
O=C(CSc1ncnc2ccccc12)Nc1cccc(S(=O)(=O)N2CCCC2)c1	?	/	-10.4%	?	15.6%[46.1 µM]	-0.7%	/	7.9%
CC(Oc1ccc(Cl)cc1Cl)c1nc(-c2ccc(NC(=O)c3ccco3)cc2)no1 (configuration not stated)	-20.4%	-1.1%	-10.4%	?	?	-34.9%	0.3%	-3.4%
O=C(/C=C/c1ccc(Cl)cc1)N1CCC(c2nc3ccccc3o2)CC1	7.1%	17.1%	/	?	-1.4%[46.1 µM]	/	4.3%	/
Cc1[nH]c(=O)[nH]c(=O)c1/C=N/NC(=O)[C@H](CC(C)C)NC(=O)OC(C)(C)C	-12.6%	-12.4%	16.3%	6.8%	0.0%	-1.4%	-0.3%	18.6%
COc1ccc(C2CC(c3cccs3)=NN2C(=O)CSc2nncn2C)cc1OC (configuration not stated)	-1.9%	/	-0.2%	/	/	-0.6%	/	3.1%

Complete entries, looked up by structure.
CCOc1ccc(NC(=O)CN(C)S(=O)(=O)c2ccc3c(c2)CCC(=O)N3)cc1 is listed with StopGo reporter: 1.3%; Cruzain inh noDet: /; RE007 growth inh: 0.4%; MARV entry inh: /; LASV entry inh: /; SARS PLP yeast: 0.6%; Cruzain Triton: /; NS1 function inh: -6.2%
CC(Oc1ccc(Cl)cc1Cl)c1nc(-c2ccc(NC(=O)c3ccco3)cc2)no1 (configuration not stated) is listed with StopGo reporter: -20.4%; Cruzain inh noDet: -1.1%; RE007 growth inh: -10.4%; MARV entry inh: ?; LASV entry inh: ?; SARS PLP yeast: -34.9%; Cruzain Triton: 0.3%; NS1 function inh: -3.4%

High-throughput results as filed in PubChem BioAssay.
